# Bead autofluor: compound fluorescence in toxin protease inhibitor counterscreen; compound autofluorescence counterscreen, microsphere flow cytometry; hits give high values; fluorescence intensity (concentration not given with the values); 360,000 compounds, 3.1% hits; AID 624483;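 active = at least 3 SD above the mean of all compounds, about 16000 in these data; inconclusive = too few beads counted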;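 also: 100 nL of 1 mM stock went into each well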
# PrP 5UTR inh: inhibition of PrP 5' UTR reporter expression; cell-based PrP 5' UTR mRNA reporter, plate reader; inhibition, % (no concentration beside the values); 340,000 compounds, 0.35% hits; AID 488862;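 active = every replicate at 50% or more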;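 also: 0 = median of the neutral control wells; tested in H4 reporter cells; numbers are from one replicate; inactives centre near -14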
# Sa RN4220 lethal: kills Staphylococcus aureus RN4220 | S. aureus RN4220 growth, OD600, 16 h | inhibition, % (no concentration beside the values) | 330,000 compounds, 0.33% hits;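 active = z-score of -3 or lower and OD600 up to 0.18 on both plates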;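 also: plate controls were untreated cells for no effect and reference antibiotic for full effect; stock transfer was 100 nL into about 80 µL; one replicate is shown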
# Sa ugtP lethal: kills S. aureus RN4220 lacking UgtP; S. aureus RN4220 ugtP deletion, OD600 growth, 16 h; some inactives read as strong as hits; growth inhibition, % (test concentration not listed); 330,000 compounds, 0.54% hits; AID 1259309;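 active = z-score under -3 and OD600 up to 0.15 on both plates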;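 also: plate controls were untreated wells for no effect and antibiotic for full effect; wells of about 80 µL received 100 nL stock; the first replicate is given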
# BJeLR viability: BJeLR cell viability loss; BJeLR (HRASV12) viability, CellTiter-Glo ATP luminescence, 48 h; reference of the scale not given here; inhibition, % (no concentration beside the values); 300,000 compounds, 0.17% hits; AID 1554;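 active = replicate mean above 50%; inconclusive = above 50% but judged a plate artefact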;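 also: 50 nL library stock added to about 25 µL; numbers are from one replicate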
# Mtb hypoxia inh: reduces hypoxia-regulated biosensor signal in M. tuberculosis; 300,000 compounds, 0.1% hits; fluorescence inhibition, % (no concentration beside the values); M. tuberculosis hypoxia-regulated fluorescent reporter, fluorescence;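 active = 35 to 45% if threefold the growth effect, above 45% if 1.5-fold the growth effect; inactive = the rest, general growth blockers included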;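 also: wells of about 50 µL received 100 nL stock; 0% = vehicle wells and 100% = reference inhibitor wells; whole bacteria with a GFP reporter of the hypoxia response; strong numbers were not always called active; many hits fall short of the cut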
# Mtb hypoxia inh growth: second read-out of Mtb hypoxia inh, no call of its own (marks repeat the call); growth inhibition, %; measured here: M. tuberculosis growth (absorbance);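 0% = vehicle and 100% = reference antibiotic; read after six days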
# * = called active by the depositor; ? = inconclusive; / = not tested or not shown.
smiles	Bead autofluor	PrP 5UTR inh	Sa RN4220 lethal	Sa ugtP lethal	BJeLR viability	Mtb hypoxia inh	Mtb hypoxia inh growth
COc1ccc(C2CC(=O)N(C)c3ccccc3S2)cc1 (stereo unspecified)	2468	-15	8.6	8	-3	7	2
Cc1ccc(NC(=O)Cn2c(CCC(=O)O)ccc2-c2ccc(Cl)cc2)cc1	3121	-11	7.3	-3	-5	14	0
Cc1ccc(-c2nnn(CC(=O)N(c3ccccc3)C(C(=O)NCC3CCCO3)c3cccs3)n2)o1 (stereo unspecified)	4474	-20	9.1	9	-1	1	-10
CN1CCSc2ccc(C(=O)Nc3ccc(Cl)cc3)cc21	4201	-137	/	/	-2	/	/
O=C(c1ccncc1)N(Cc1ccco1)Cc1cc2ccccc2[nH]c1=O	22113*	-22	4.3	-7	13	9	10
COc1ccc(-n2c(C)cc(C(=O)CN3C(=O)c4ccccc4C3=O)c2C)cc1	9028	-7	-4.3	6	-12	7	-2
Nc1cc(C(=O)OCC(=O)c2ccc(CC(=O)N3CCOCC3)s2)ccc1Cl	8290	-19	-1.5	-6	/	6	9
CCN1C(=O)C(O)(CC(=O)c2cc(C)ccc2C)c2ccccc21 (stereo unspecified)	2469	-13	6.4	1	-2	/	/
Cn1ccnc1Sc1ccccc1[N+](=O)[O-]	4344	-35	4.6	10	-4	7	4
COc1ccc(C(=O)NCC(=O)N2CCN(c3ccc(F)cc3)CC2)cc1	3407	-20	-2.4	3	0	7	-2
Cc1[nH][nH]c(=O)c1C(c1ccc(-c2ccc(Cl)cc2)o1)c1c(C)[nH][nH]c1=O	11125	-39	4.7	-10	-5	11	11
CCN(Cc1ccccc1)S(=O)(=O)c1ccc(S(=O)(=O)N(Cc2ccccn2)Cc2ccco2)cc1	10658	-18	4.2	-2	-6	9	8
CCOC(=O)Cn1nc(NC(=O)c2cc(OC)cc(OC)c2)cc1C	3202	-6	5.0	6	5	6	1
NC(=O)C1(c2ccccc2)CCCN1C(=O)c1ccccc1Br (stereo unspecified)	3196	-4	3.4	5	1	3	0
CC(=O)c1sc(N/N=C/c2cccc([N+](=O)[O-])c2)nc1C	3571	-51	/	/	1	/	/
COc1ccc(NS(=O)(=O)c2cc(-c3nnnn3C)ccc2OC)cc1	18825*	-18	3.0	4	-3	0	-1
O=C(Nc1ccc2c(c1)OCO2)c1ccc(CN2CCOCC2)cc1	8309	-20	0.5	-14	0	5	8
O=C(Nc1ccc2c(c1)OCO2)c1cc(-c2ccncc2)nc2ccccc12	3338	-30	1.0	3	5	10	10
CC(C)(C)n1ncc2c(=O)n(CC(=O)NCc3ccccc3)cnc21	3306	-39	1.0	0	3	3	13
COc1ccc(OC)c(N(CC(=O)N2CCOCC2)S(C)(=O)=O)c1	/	3	4.9	4	-3	8	6

# Grouped by structure, the compounds so far with an NH in an aromatic ring.
smiles	Bead autofluor	PrP 5UTR inh	Sa RN4220 lethal	Sa ugtP lethal	BJeLR viability	Mtb hypoxia inh	Mtb hypoxia inh growth
O=C(c1ccncc1)N(Cc1ccco1)Cc1cc2ccccc2[nH]c1=O	22113*	-22	4.3	-7	13	9	10
Cc1[nH][nH]c(=O)c1C(c1ccc(-c2ccc(Cl)cc2)o1)c1c(C)[nH][nH]c1=O	11125	-39	4.7	-10	-5	11	11

# Returning to the listing, starting 3 compounds before the break.
smiles	Bead autofluor	PrP 5UTR inh	Sa RN4220 lethal	Sa ugtP lethal	BJeLR viability	Mtb hypoxia inh	Mtb hypoxia inh growth
O=C(Nc1ccc2c(c1)OCO2)c1cc(-c2ccncc2)nc2ccccc12	3338	-30	1.0	3	5	10	10
CC(C)(C)n1ncc2c(=O)n(CC(=O)NCc3ccccc3)cnc21	3306	-39	1.0	0	3	3	13
COc1ccc(OC)c(N(CC(=O)N2CCOCC2)S(C)(=O)=O)c1	/	3	4.9	4	-3	8	6
C=CCn1c2ccccc2c2nnc(SCCCn3c(=O)[nH]c4ccccc43)nc21	2825	-3	14	9	/	-5	4
CCOC(=O)C(CC(=O)O)=C(c1ccccc1)c1ccccc1	3279	-23	11	5	11	9	-2
O=C(Nc1ccc(F)cc1)C(Cl)=Cc1ccccc1	/	/	5.6	-2	/	18	12
CS(=O)(=O)N1N=C(c2cccs2)CC1c1ccccc1O (stereo unspecified)	5219	-12	7.8	-4	-1	11	10
C[C@@]12C(=O)N(c3cccc(F)c3)C(=O)N1[C@H](c1ccc(F)cc1)[C@@H]1C(=O)N(C3CCCCC3)C(=O)[C@@H]12	3742	-40	/	/	-5	/	/
O=C(CN1CCOCCOCCN(CC(=O)Nc2ccccc2)CCOCC1)Nc1ccccc1	8590	-7	0.4	-1	4	6	2
Cc1cc(-c2nc(-c3ccc(C(C)(C)C)cc3)no2)no1	4877	-78	-0.1	8	0	-1	4
CCC(Sc1nc(C)cc(=O)[nH]1)C(=O)Nc1ccc(Cl)cn1 (stereo unspecified)	5295	-41	5.3	-1	4	6	14
O=S(=O)(c1ccc(Cl)c(C(F)(F)F)c1)N1CCN(c2ccccn2)CC1	3983	-41	4.0	-2	-1	12	12
O=C(NCCc1ccccc1)C1CCN(c2nc3ccccc3o2)CC1	12206	-7	3.4	14	7	6	5
COc1ccc(CCN2CN(S(=O)(=O)c3ccc(C)cc3)c3nc4ccccc4nc32)cc1OC	2060	-72	1.1	3	-17	-11	3
Cc1nc(CCNC(=O)c2cc(COc3ccc(F)cc3Cl)on2)sc1C	3459	-21	8.1	0	-8	13	3
O=C(CN1C(=O)C2C3C=CC(C3)C2C1=O)OCC(=O)c1ccc([N+](=O)[O-])cc1 (stereo unspecified)	2770	-6	10	4	-1	18	8
C(=N\Nc1nc2ccccc2[nH]1)/c1ccc2ncccc2c1	2603	-17	/	/	88*	/	/
Clc1ccc(Cn2c(/C=C/c3ccco3)nc3ccccc32)cc1	4198	-18	-5.1	-21	0	/	/
O=C(CSc1nnc2ccccn12)NC(=O)NC1CCCCC1	3328	-13	4.5	3	2	7	7
O=C(O)/C=C/C(=O)Nc1ccc(NC(=O)c2ccccc2)c(Cl)c1	3415	-2	/	/	-6	/	/
Cc1cc(Cl)ccc1OC(C)C(=O)NCCc1ccc2c(c1)OCCO2 (stereo unspecified)	2290	-2	9.8	-1	-2	-7	9
CCn1cc(CCCC(=O)NCc2ccc(OC)cc2)c2ccccc21	3961	-27	1.5	7	0	-3	-1
O=C(Nc1cccc2ccccc12)N1CC=CCC1	3001	-5	4.2	1	2	/	/
O=C(c1ccc(S(=O)(=O)NCc2ccco2)cc1)N1CCN(Cc2ccc3c(c2)OCO3)CC1	4684	-5	2.8	2	-8	3	2
CCOC(=O)c1c(NC(=O)COC(=O)C2CC2C)sc(C)c1C (stereo unspecified)	8983	-5	8.3	4	6	21	19
Cn1ncc(N=Cc2ccc([N+](=O)[O-])cc2)c1C(=O)Nc1ccccc1	2112	-7	9.2	-1	8	2	3
COc1ccc2c3c([nH]c2c1)C(C)N(CCC(=O)NN)CC3 (stereo unspecified)	3303	-11	0.4	3	10	7	5
CCCn1c(N)nc2ccccc21	3182	-12	-0.2	-4	-3	3	8
Cc1nn(Cc2ccc(Cl)cc2Cl)c(C)c1NC(=O)C1C2CCC(O2)C1C(=O)O (stereo unspecified)	2841	-6	1.9	2	-5	/	/
COc1ccc(NP(=O)(Nc2ccc(OC)cc2)Oc2ccccc2)cc1	9823	-19	10	9	-4	-1	2
C=CCN(c1ccccc1)S(=O)(=O)c1ccc(Cl)c(C(=O)OCC(=O)N(C)C2CCS(=O)(=O)C2)c1 (stereo unspecified)	3218	-3	9.6	6	-10	1	0
CCC(=O)Nc1ccc(C(=O)Nc2cc(C)on2)cc1	4551	-17	2.1	1	3	/	/
Cc1cc2c(cc1S(=O)(=O)Nc1cccc(C)c1C)OCC(=O)N2	6995	-23	20	3	5	1	-7
CCOC(=O)N1CCN(C(=O)CN(Cc2ccc(Cl)cc2)S(=O)(=O)c2ccccc2)CC1	24155*	-24	4.3	-3	4	13	6
Cc1nc2c3c4c(sc3n3c(SCC(=O)NCc5ccco5)nnc3n2n1)COC(C)(C)C4	4250	-25	-0.5	10	/	/	/
Cc1ccccc1OCC(=O)OCn1nnc2ccccc2c1=O	3642	1	3.0	-1	-6	19	5
O=C(COc1ccccc1)Nc1nc2ccccc2[nH]1	4421	-70	2.9	-5	-3	13	21
Cc1ccc(NS(=O)(=O)c2ccc(-n3cccn3)cc2)cc1F	5887	-16	3.4	2	1	5	-2
Cc1ccc(SCC(=O)N(C)CC(=O)Nc2cccc(F)c2)cc1	?	-9	2.3	4	-3	4	10
Cc1cc(C)nc(NS(=O)(=O)c2ccc(N=Cc3c(O)n(C)c(=O)n(C)c3=O)cc2)n1	4388	-18	5.4	-1	10	2	1
Cc1nc(NC(=O)c2ccccc2)sc1-c1csc(N)n1	3201	-65	8.6	-21	7	6	4
COC(=O)C(C)NS(=O)(=O)c1ccc(NC(C)=O)cc1 (stereo unspecified)	10639	-13	6.7	15	6	-1	9
CNC(=S)NN=C(C)c1ccc(-n2ccnc2)cc1	/	/	-0.9	-4	/	1	-3

# Profiles from above. Screens in order: Bead autofluor, PrP 5UTR inh, Sa RN4220 lethal, Sa ugtP lethal, BJeLR viability, Mtb hypoxia inh, Mtb hypoxia inh growth
# CCOC(=O)N1CCN(C(=O)CN(Cc2ccc(Cl)cc2)S(=O)(=O)c2ccccc2)CC1 is listed with 24155*, -24, 4.3, -3, 4, 13, 6
# Cc1cc(C)nc(NS(=O)(=O)c2ccc(N=Cc3c(O)n(C)c(=O)n(C)c3=O)cc2)n1 is listed with 4388, -18, 5.4, -1, 10, 2, 1
# COC(=O)C(C)NS(=O)(=O)c1ccc(NC(C)=O)cc1 (stereo unspecified) is listed with 10639, -13, 6.7, 15, 6, -1, 9

# (further entries)
smiles	Bead autofluor	PrP 5UTR inh	Sa RN4220 lethal	Sa ugtP lethal	BJeLR viability	Mtb hypoxia inh	Mtb hypoxia inh growth
O=C(NCc1ccccn1)c1ccc(OC2CCN(Cc3ccc(Cl)s3)CC2)cc1	3449	-6	-4.6	0	-3	-5	5
NS(=O)(=O)c1ccc(CNC(=O)c2ccc(S(=O)(=O)C(F)F)cc2)cc1	4233	-3	1.7	2	2	13	8
Cc1ccc(NC(=O)CNC2CCS(=O)(=O)C2)cc1C (stereo unspecified)	3726	-12	6.9	3	1	12	5
CCN(CC)S(=O)(=O)c1cccc(C(=O)NN=Cc2ccc([N+](=O)[O-])o2)c1	/	/	39	11	/	13	34
Cc1cc(C)c(C#N)c(SCc2cn3c(C)cccc3n2)n1	2479	-46	2.7	-8	2	5	8
O=C(NC(Nc1ccc(F)cc1)(C(F)(F)F)C(F)(F)F)c1cccnc1	2473	-12	0.5	2	-4	-6	3
COC(=NC1CCCCC1)C(O)c1c[nH]c2ccccc12 (stereo unspecified)	3820	-17	5.6	-4	4	-9	14
O=[N+]([O-])c1ccccc1S(=O)(=O)N1CCSCC1	3456	-9	3.7	1	/	3	8
Cc1ccccc1NC(=S)NNc1ncc(C(F)(F)F)cc1Cl	3946	-19	4.0	3	2	/	/
CCCCC(=O)N(Cc1ccc(-c2ccccc2-c2nn[nH]n2)cc1)C(C(=O)O)C(C)C (stereo unspecified)	/	/	6.1	-2	/	-4	-2
O=C(CSc1nc2ccccc2[nH]1)c1ccccc1F	5791	-78	-0.5	7	1	7	7
Cc1ccc(C(C(=O)NC2CCCCC2)N(C(=O)c2csnn2)c2ccccc2F)o1 (stereo unspecified)	3869	-30	6.3	1	1	10	7
CCn1nc(C(=O)OCC(=O)Nc2ncc(Cl)c(C)c2Cl)c2ccccc2c1=O	2123	-32	3.7	5	5	6	4
Cc1cc(C)cc(NC(=O)NC2CCCCCCC2)c1	5185	1	-4.6	-10	/	/	/
COc1ccccc1C(=O)NCC(=O)NN=Cc1cc(Br)ccc1OC(=O)/C=C\c1ccco1	/	/	-3.0	-12	/	8	1
Cc1ccc(S(=O)(=O)N2CCCC2CNC(=O)C(=O)NCc2cccs2)cc1 (stereo unspecified)	6883	-13	-0.3	-1	9	-12	7

# Bioassay records: PubChem, several laboratories
